Screening results as filed in PubChem.
Six1-Eya2 inh = inhibitors of human Six1/Eya2 interaction; 360,000 compounds, 0.56% hits; Q15475+O00167; AlphaScreen GST-Six1/His-Eya2 binding, biochemical; stronger effect = lower value; control for the full effect not named in the record; AID 651725; activity change, % (no concentration beside the values); in the data active = activity change below about -65%; inconclusive = about -30% to -65%; inactive = above about -30%; note: % is set by controls: 0 for no effect and ±100 for the full control effect
Target sequence (O00167 whole entry, looked up): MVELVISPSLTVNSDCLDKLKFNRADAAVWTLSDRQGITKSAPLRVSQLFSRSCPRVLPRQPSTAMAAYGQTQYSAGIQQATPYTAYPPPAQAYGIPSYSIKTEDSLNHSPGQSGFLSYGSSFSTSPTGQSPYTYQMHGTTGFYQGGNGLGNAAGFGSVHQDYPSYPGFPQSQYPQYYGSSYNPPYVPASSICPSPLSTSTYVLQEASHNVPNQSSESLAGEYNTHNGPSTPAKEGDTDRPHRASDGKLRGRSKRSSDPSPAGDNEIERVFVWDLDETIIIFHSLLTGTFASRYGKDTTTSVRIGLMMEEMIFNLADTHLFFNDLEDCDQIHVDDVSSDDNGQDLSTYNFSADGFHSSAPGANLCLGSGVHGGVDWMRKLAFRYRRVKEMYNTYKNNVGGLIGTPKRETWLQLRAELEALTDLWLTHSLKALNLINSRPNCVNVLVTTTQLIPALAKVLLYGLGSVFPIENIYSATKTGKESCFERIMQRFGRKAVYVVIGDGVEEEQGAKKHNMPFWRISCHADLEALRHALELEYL
Target sequence (Q15475 whole entry, looked up): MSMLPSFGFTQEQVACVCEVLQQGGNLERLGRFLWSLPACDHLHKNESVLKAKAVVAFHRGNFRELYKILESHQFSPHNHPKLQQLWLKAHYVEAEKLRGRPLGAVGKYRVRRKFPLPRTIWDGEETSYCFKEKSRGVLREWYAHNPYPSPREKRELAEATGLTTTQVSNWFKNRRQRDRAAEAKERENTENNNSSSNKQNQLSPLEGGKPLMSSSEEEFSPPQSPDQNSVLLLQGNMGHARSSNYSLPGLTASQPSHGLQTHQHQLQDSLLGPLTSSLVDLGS
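Compounds are tested against tagged Six1 and Eya2 proteins bridged by glutathione donor and nickel acceptor beads; after a one-hour incubation at 37 °C without light, AlphaScreen emission is recorded.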
PINK1 modulator = PINK1 expression modulation; PINK1 immunofluorescence, high-content cytometry, 24 h; Potency, µM (top dose mostly 76.6 µM), without a hit: top-dose activation (PINK1 increase), actives largely listed as activators; 410,000 compounds, 0.2% hits; active = well fitted activation curve with a large enough effect; inconclusive = small, poorly fitted or top-dose-only effect; inactive = flat fitted curve, though single readings scatter; cell line not stated here;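 note: potency is the fitted concentration of half-maximal effect; % of control where 0% means no effect; nearly all actives have a fitted effect of over 65% in size; a mitochondrial uncoupler was the plate control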
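Readout is PINK1 immunofluorescence, quantified alongside mitochondrial, cell and nuclear markers by laser-scanning microplate cytometry. Cells from a stable line were exposed to compound titrations (5 concentrations) for 24 hours, with CCCP controls.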
D2 ag = activates the human D2 dopamine receptor. P14416. DiscoveRx PathHunter D2 beta-arrestin, luminescence, 90 min; 100% = 57 uM dopamine signal. activation, % (test concentration not listed). 360,000 compounds, 0.084% hits. AID 624465; in the data active = activation above about 40%; inconclusive = about 15% to 40%; inactive = below about 15%; note: compound concentration not given in the record; the text of the record calls up to 30% inactive
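DiscoveRx PathHunter D2 beta-arrestin cells (2,100/well) attached overnight, then compound-stimulated 90 min at 37 C in HBSS/10 mM HEPES/0.1% Tween-20 buffer; beta-galactosidase complementation read by luminescence after 1 h at ambient temperature. Dopamine 57 uM final (EC100) as control.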
TRPML1 agonist = human mucolipin-1 channel agonism. Q9GZU1. TRPML1-expressing cells, Ca2+ dye fluorescence, FDSS; host cell line not named in the record; reference of the full effect not given here. activation, % (no concentration beside the values). 410,000 compounds, 0.12% hits; in the data active = activation above about 50%; inconclusive = about 30% to 50%; inactive = below about 30%; note: 0% is about no effect; the text of the record puts the active cut at 80%
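Agonist activity was taken from a 110 s kinetic Ca2+ dye read on the FDSS after pinning compounds onto TRPML1-DL cells. The cells were seeded at 1,500/well with Tet inducer, incubated about 16 h, then dye-loaded at room temperature.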
CtBP-E1A blk = CtBP/E1A binding inhibition | AlphaScreen GST-E1A/His-CtBP binding, 1536-well; stronger effect = lower value; control for the full effect not named in the record | 340,000 compounds, 0.49% hits | activity change, % (test concentration not listed); in the data active means activity change below about -65%; inconclusive means about -30% to -65%; inactive means above about -30%; note: % is set by controls: 0 for no effect and ±100 for the full control effect
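Homogeneous bead-based format: GST-tagged E1A captured on glutathione donor beads, His-tagged CtBP on nickel acceptor beads; compounds precede bead addition by 2 h at 37 °C.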
TRPML1 inh = inhibitors of human TRPML1 channel; Q9GZU1; TRPML1-inducible cells, Ca2+ dye fluorescence, FDSS; stronger effect = lower value; inhibition of EC80 agonist-evoked calcium signal; activity change, negative = inhibition, % (test concentration not listed); 390,000 compounds, 0.02% hits; AID 624415; in the data active means activity change below about -50%; inconclusive means about -30% to -50%; inactive means above about -30%;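 note: stimulus is agonist 54-4 at its EC80 concentration; % is set by controls: 0 for no effect and ±100 for the full control effect; compound concentration not given in the record; the text of the record puts the active cut at -80%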
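Tet-induced TRPML1-DL cells loaded with Ca8 no-wash calcium dye were read kinetically on FDSS. Compound addition was followed by EC80 agonist 54-4 (4 uM final); inhibition was read over 110 s.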
An asterisk follows results filed as active; ? = inconclusive; . = no result given; & = joins results of further samples; [ ] = dose if it differs, or a comment.

SMILES	Six1-Eya2 inh	PINK1 modulator	D2 ag	TRPML1 agonist	CtBP-E1A blk	TRPML1 inh
O=C(COC(=O)c1c(F)cccc1F)Nc1ccc(N2CCCCC2)cc1	-20	1.2%	-0.9	0.6	-13	4
COCCCNC(=O)C1CCN(C(=O)c2cc3sccc3n2Cc2ccc(F)cc2)CC1	5	-3.2%[38.3 µM]	-3.3	0.3	2	-7
CC1CCN(C(=O)c2ccc3c(c2)NC(=O)/C(=C/c2ccccc2)S3)CC1	-5	0.5%	0.2	4.3	-1	-3
CC(=O)c1cccc(N(CC(=O)Nc2ccccc2F)S(C)(=O)=O)c1	-2	-2.9%	-2.2	1.2	-17	-3
CCc1c(C)sc(NC(=O)c2cccs2)c1C(=O)OC(C)C	18	0.9%[38.3 µM]	-1.5	1.3	29	40
CCOc1ccc(C(=O)N2CCN(CC(=O)N3CCCC3)CC2)cc1OCC	6	-1.7%	-0.5	0.1	-1	-9
Cc1cc(NC(=O)NCC(F)(F)F)no1	7	1.7%	-3.7	-0.3	3	1
CCOc1ccc(C(=O)c2cnc3ccc(Cl)cc3c2S(=O)(=O)c2ccc(C)cc2)cc1	.	-0.6%	.	0.3	.	2
CCCOc1c(Cl)cc(/C=N/O)cc1OCC	12	2.7%	1.3	2.0	-9	-5
CCCn1c(=NC(=O)c2ccco2)c(C(=O)OCC)cc2c(=O)n3ccccc3nc21	1	.	-3.5	0.4	8	-16
Cc1cccc(NS(=O)(=O)c2cccc(C(=O)NCCCN3CCOCC3)c2)c1	1	-2.6%	-2.7	1.6	-12	-11
O=C(c1scc2c1CCCC2)N1CCCCC1	0	0.3%	-1.4	0.5	7	-9
Cc1nn2c3c(cnc2c1-c1ccc(F)cc1)C(=O)CC(c1ccccc1)C3 (centres undefined)	.	-0.8%	.	-0.3	.	0
COC(=O)CSc1nnc(CNC(=O)c2cccs2)n1-c1cccc(C)c1	-1	5.4%	-3.3	-0.2	10	7
O=C(N/N=C/c1ccc(Cl)cc1)c1nc2ccc([N+](=O)[O-])cc2c(=O)[nH]1	-11	0.5%	2.2	0.3	.	22
Cc1ccsc1CNC1CCCCC1	-1	0.1%	-2.2	0.9	5	-5
Cc1nc2ccccc2nc1CN1CCN(Cc2ccc(F)c(F)c2)C(CCO)C1 (centres undefined)	3	1.0%	-3.2	0.2	-2	4
CCSc1cc(C)nc2c(-c3ccc(Cl)cc3)c(C)nn12	2	8.8%[38.3 µM]	0.5	4.2	-1	22
NC(=NC(=O)c1ccc(Cl)cc1)N1N=CCC1c1ccccc1 (centres undefined)	-8	1.2%	-3.6	3.2	0	19
Cc1ccccc1NC(=O)/C(=C\c1cccs1)NC(=O)c1ccco1	4	-1.2%[38.3 µM]	-3.3	1.8	9	7
COCCNC(=O)c1nn(-c2ccc(Cl)cc2)nc1CO	.	0.1%	.	1.6	.	-22
CCOC(=O)c1ccc(NC(=O)CCC(=O)OC)cc1	18	1.4%	-4.4	0.6	2	-15
Cc1nn(CCCC(=O)NCc2ccccc2)c(=O)c2nccn12	1	-0.8%	0.4	0.1	9	-16
Cc1nn2c(NCCN(C)C)c3c(nc2c1-c1ccccc1)CCC3	-10	3.0%	-2.6	3.4	-1	38
COc1ccc(-n2c(=S)[nH]c3ccccc3c2=S)cc1	-10	-2.5%	-0.4	2.7	-21	13
O=C(NCc1ccc2c(c1)OCO2)c1ccc2c(c1)N(Cc1ccccc1)C(=O)c1ccccc1S2=O (centres undefined)	.	0.1%	.	-0.9	.	13
COCCNC(=O)c1cc(-c2cccc(OC)c2)on1	-4	-3.4%[38.3 µM]	-1.7	-0.4	-20	-1
CC(OC(=O)CNC(=O)c1ccc(Cl)c([N+](=O)[O-])c1)C(=O)NCc1ccco1 (centres undefined)	-6	3.9%	-0.9	-0.7	-2	2
Cc1c(C(=O)NN)nn(-c2ccc(Cl)cc2)c(=O)c1C#N	-2	1.3%	4.9	-0.2	-6	2
CC1=C(C#N)c2nc(N)c(C#N)c(C)c2/C1=C\c1ccc(-c2ccccc2C(=O)O)o1	?	-0.1%	-1.3	-0.2	-12	27

Structures shown so far that have fluorine, in the order listed:
SMILES	Six1-Eya2 inh	PINK1 modulator	D2 ag	TRPML1 agonist	CtBP-E1A blk	TRPML1 inh
O=C(COC(=O)c1c(F)cccc1F)Nc1ccc(N2CCCCC2)cc1	-20	1.2%	-0.9	0.6	-13	4
COCCCNC(=O)C1CCN(C(=O)c2cc3sccc3n2Cc2ccc(F)cc2)CC1	5	-3.2%[38.3 µM]	-3.3	0.3	2	-7
CC(=O)c1cccc(N(CC(=O)Nc2ccccc2F)S(C)(=O)=O)c1	-2	-2.9%	-2.2	1.2	-17	-3
Cc1cc(NC(=O)NCC(F)(F)F)no1	7	1.7%	-3.7	-0.3	3	1
Cc1nn2c3c(cnc2c1-c1ccc(F)cc1)C(=O)CC(c1ccccc1)C3 (centres undefined)	.	-0.8%	.	-0.3	.	0
Cc1nc2ccccc2nc1CN1CCN(Cc2ccc(F)c(F)c2)C(CCO)C1 (centres undefined)	3	1.0%	-3.2	0.2	-2	4

(listing goes on)
SMILES	Six1-Eya2 inh	PINK1 modulator	D2 ag	TRPML1 agonist	CtBP-E1A blk	TRPML1 inh
Cc1ccc(C(=O)N[C@H](C(=O)Nc2cc(Cl)cc(Cl)c2)C(C)C)cc1	9	7.9%	-3.9	-0.4	10	-3
O=C(CCCn1c(=S)[nH]c2ccccc2c1=O)NC1CCCCC1	-1	.	-2.0	0.0	11	10
COc1ccc(NCC(=O)N/N=C2\CCc3ccccc32)cc1	-15	-0.5%	-2.2	-0.2	-13	-2
CCCCCCCCn1cnc2c(N)c(C)c(C)cc21	-25	9.1%[38.3 µM]	-0.1	1.8	-26	9
COc1ccc(S(=O)(=O)NNC(=O)C2CC(c3cccnc3)=NO2)cc1 (centres undefined)	-1	-0.1%	3.8	1.7	-17	-2
COCCCNC(=O)Cn1nnc(-c2ccc(NC(=O)c3ccccc3F)cc2)n1	4	-0.2%	-2.2	0.2	-1	-7
O=C(CC1c2cc(F)ccc2C=C(c2ccsc2)N1c1ccc(C#CCCO)cc1)c1ccco1 (centres undefined)	-9	0.5%	.	-0.7	-6	.
O=C(Nc1cccc(O)c1)c1cccc(S(=O)(=O)N2CCCCCC2)c1	?	3.8%	-2.2	-0.7	?	-9
Nc1cc(=O)[nH]c(SCC(=O)NC2CCCCCCC2)n1	-14	-3.6%	-2.3	-0.1	0	-16
O=C(Nc1ccccn1)Nc1ccccc1Cl	-9	-0.1%	-0.5	0.1	.	3
COc1ccccc1-n1c(C)nc2cc(C(=O)NCc3ccc4c(c3)OCO4)ccc21	-9	1.6%	-0.8	0.5	-7	11
Cc1cc(=O)n2[nH]c(SCc3ccc(Cl)cc3)nc2n1	5	0.1%	1.1	-0.5	9	6
CCOc1ccc(-n2c(SC(C)C(=O)OC)nc3c([nH]c4ccccc43)c2=O)cc1 (centres undefined)	.	0.9%	.	1.6	.	-1
COc1ccc(CCNC(=O)c2c(N)no[n+]2[O-])cc1OC	0	-1.2%	1.2	0.1	-24	-12
Cc1ccc(C(C)C)c(OCCNC(=O)c2ccccc2O)c1	1	?	5.8	0.5	-2	12
O=C(NCc1ccccc1)C1=C[C@@H](c2ccc(Br)cc2)C[C@@H](OCc2ccc(CO)cc2)O1	-3	0.6%	1.2	-0.4	0	-13
CCSc1nn(CC(=O)Nc2cccc(Cl)c2)c(N)c1S(=O)(=O)c1ccc(OC)cc1	.	?	.	0.0	.	15
Cc1cc2ccccc2n1CCNC(=O)C(C)C	-9	1.3%	-3.9	5.0	-8	-11
CCCCNC(=O)C(=O)N/N=C/c1ccc(C(=O)OC)cc1	-5	-1.5%	-5.2	0.1	0	14
Cc1cc(C(F)F)n2nc(C(=O)Nc3ccc(F)c(Cl)c3)nc2n1	.	1.6%	.	-0.5	.	5
CCOC(=O)c1sc(NC(=O)c2ccccc2C(=O)O)c(C(=O)OCC)c1C	-4	0.6%	2.2	.	-17	.
O=c1[nH]c(CN2CCc3ccccc32)nc2scc(-c3cccs3)c12	-20	3.1%	0.0	0.9	-11	22
COc1ccc(-n2nnnc2CNC(=O)C2CC(=O)N(c3ccc(F)cc3)C2)cc1 (centres undefined)	12	-0.7%	-3.9	-0.2	-6	32
O=C(Cn1ncc2c3ccccc3n(Cc3ccc(F)cc3)c2c1=O)NCc1cccs1	.	0.9%	.	0.1	.	-8
COc1ccc(-c2cc(-c3ccccc3)c(C#N)c(SCC(O)CS(=O)(=O)Cc3ccc(Cl)cc3)n2)cc1 (centres undefined)	.	?	.	2.1	.	-3
Cc1cnc(CNC(=O)c2csc(COCCO)n2)cn1	-1	-0.6%	-2.7	0.2	7	2
COP(=O)(OC)C(NC(=O)Nc1ccccc1)c1ccccc1 (centres undefined)	0	1.9%	-0.7	.	5	.
COCCn1c(SCC(=O)Nc2cccnc2Cl)nc2ccccc21	5	0.1%	-2.3	-1.1	.	3
Cc1ccc(CN2CCN(CC(C)C)C(CCO)C2)s1 (centres undefined)	-2	-0.6%	-3.1	-0.7	6	-8
CN(C(=O)COC(=O)CSCc1cccc(Cl)c1)c1c(N)n(Cc2ccccc2)c(=O)[nH]c1=O	12	1.5%	-0.1	-0.1	.	-1
Cc1ccn2c(CNCc3cnn(C)c3)c(C(=O)N3CCCCCC3)nc2c1	4	0.6%	1.5	-1.0	3	22
Cc1ccc(NC(=O)Cn2cc(S(=O)(=O)c3ccccc3)c(=O)c3cc4c(cc32)OCO4)cc1	.	-0.4%	.	2.4	.	-7
COc1ccc(-c2cnc(N)n2C)cc1	-9	0.0%	-7.7	0.5	.	4
COc1cc2c(=O)n(CCC(=O)NCC3CCCO3)c(=O)n(CC(=O)Nc3ccc(C)cc3C)c2cc1OC (centres undefined)	-6	0.3%&0.1%	0.3	1.0&0.2	0	6&8
CC(=O)Nc1ccc(NC(=O)CSc2nnc(-c3ccco3)o2)cc1	-1	-2.8%	4.6	-0.4	3	-11
Cc1ccc(CN2C(=O)CCC2C(=O)NCc2ccc3c(c2)OCO3)cc1 (centres undefined)	-2	2.7%	-2.1	-0.3	5	-4
COc1cc(COc2ccc3c(C)c(CCC(=O)O)c(=O)oc3c2)cc(OC)c1OC	-9	1.9%	-1.2	-0.7	-6	39
NC(=O)CSc1oc(-c2cccs2)nc1S(=O)(=O)c1ccc(Br)cc1	.	-0.9%	.	-0.6	.	10
CCN=C1SC(CC(=O)Nc2ccccc2OCC)C(=O)N1CC (centres undefined)	3	4.3%[38.3 µM]	-1.8	3.0	2	-7
Cc1ccc(-n2nnc3c(=O)oc4ccccc4c32)cc1	-7	-2.6%	-3.7	-0.7	1	32
O=C1NN=C(c2ccccc2)CC1c1c[nH]c2ccccc12 (centres undefined)	0	-0.4%	-3.2	1.3	.	12
Cc1cc(C)n2nc(C)c(-c3ccccc3)c2n1	16	0.7%	-2.6	2.9	10	2
COc1ccc(CC(=O)NNc2ncnc3c2cnn3-c2ccc(C)cc2)cc1	6	?	-7.8	-1.6	2	60
COc1ccc(CCNS(=O)(=O)c2ccc(F)c(C(=O)Nc3ccc(Cl)cc3)c2)cc1OC	.	2.9%	.	4.3	.	-6
